# PV pol inh: inhibitors of poliovirus RNA polymerase binding and polymerization. poliovirus polymerase elongation, fluorescence polarization; active compounds read low. % elongation, % (compound at 16.7 µg/mL). hit rate 0.66% among 150,000. AID 588519; in the data active = % elongation below about 90%; also: some results filed as inactive read as strong as hits
# Target sequence (P03300 1749-2209 limits assumed): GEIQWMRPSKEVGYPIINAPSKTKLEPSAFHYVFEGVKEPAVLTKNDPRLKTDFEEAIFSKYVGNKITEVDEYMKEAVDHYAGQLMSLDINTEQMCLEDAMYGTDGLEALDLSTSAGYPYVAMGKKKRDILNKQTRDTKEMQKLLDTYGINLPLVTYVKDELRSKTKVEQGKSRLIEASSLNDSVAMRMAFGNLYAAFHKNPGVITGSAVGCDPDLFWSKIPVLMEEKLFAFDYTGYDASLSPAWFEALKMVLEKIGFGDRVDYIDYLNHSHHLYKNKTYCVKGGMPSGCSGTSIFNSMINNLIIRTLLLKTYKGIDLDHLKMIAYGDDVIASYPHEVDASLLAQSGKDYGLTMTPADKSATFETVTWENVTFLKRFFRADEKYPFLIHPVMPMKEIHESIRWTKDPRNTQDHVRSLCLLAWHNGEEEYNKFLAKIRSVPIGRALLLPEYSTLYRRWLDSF
# PV pol inh intensity: also measured in PV pol inh; calls as there; % elongation; measured here: total intensity read-out; formula for this scale not given here;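 total fluorescence in place of polarization; lower means less elongation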
# The depositor's hits bear a star. Not all compounds are listed (hit frequency here may not be typical).
SMILES,PV pol inh,PV pol inh intensity
CCOC(=O)c1ccc(N2C(=O)c3n[nH]c(-c4cccs4)c3C2c2ccc(Cl)cc2Cl)cc1 (stereo not given),105,107
CNC(=O)c1ccc2c(c1)N(Cc1ccccc1Cl)C(=O)c1ccccc1S2,105,113
Cc1ccc(CSc2nc3ccc(NC(=O)COc4ccc(F)cc4)cc3s2)cc1,109,107
CCc1ccc(OCc2cc(=O)n3c4c(sc3n2)CCCC4)cc1,101,102
COc1ccc(Cn2c(CCC(=O)NCc3ccc(Cl)cc3)nc3cccnc32)cc1,109,105
Cc1cccc(NC(=O)CN(c2ccc(C(C)C)cc2)S(=O)(=O)c2c(C)nn(C)c2C)c1C,100,102
Cc1ccc(C)c(N2CCN(C(=O)c3cc4ccc5cccnc5c4[nH]3)CC2)c1,106,110
Cn1c(CNC(=O)CSc2nc(-c3ccccc3F)nc3cc(=O)[nH]n23)nc2ccccc21,106,101
CC(=O)N1c2ccccc2CC1C(=O)N1CCN(c2ccc(F)cc2)CC1 (stereo not given),108,95
Cc1ccc(CNC(=O)CCCn2c(=O)[nH]c3ccc(Br)cc3c2=O)cc1,108,109
CCOC(=O)C1CCC(CN(Cc2ccc(OC)cc2)S(=O)(=O)c2ccc(F)c(C(=O)Nc3cc(C)ccc3C)c2)CC1 (stereo not given),109,108
CC(=O)N1c2ccc(S(=O)(=O)NCC3CCC(C(=O)NC(C)(C)C)CC3)cc2CC1C (stereo not given),114,117

# Among those listed so far, these have a Cl atom:
SMILES,PV pol inh,PV pol inh intensity
CCOC(=O)c1ccc(N2C(=O)c3n[nH]c(-c4cccs4)c3C2c2ccc(Cl)cc2Cl)cc1 (stereo not given),105,107
CNC(=O)c1ccc2c(c1)N(Cc1ccccc1Cl)C(=O)c1ccccc1S2,105,113
COc1ccc(Cn2c(CCC(=O)NCc3ccc(Cl)cc3)nc3cccnc32)cc1,109,105

# As a short view, part of the list above.
SMILES,PV pol inh,PV pol inh intensity
Cn1c(CNC(=O)CSc2nc(-c3ccccc3F)nc3cc(=O)[nH]n23)nc2ccccc21,106,101
CC(=O)N1c2ccccc2CC1C(=O)N1CCN(c2ccc(F)cc2)CC1 (stereo not given),108,95
Cc1ccc(CNC(=O)CCCn2c(=O)[nH]c3ccc(Br)cc3c2=O)cc1,108,109
CCOC(=O)C1CCC(CN(Cc2ccc(OC)cc2)S(=O)(=O)c2ccc(F)c(C(=O)Nc3cc(C)ccc3C)c2)CC1 (stereo not given),109,108
CC(=O)N1c2ccc(S(=O)(=O)NCC3CCC(C(=O)NC(C)(C)C)CC3)cc2CC1C (stereo not given),114,117

# Later entries.
SMILES,PV pol inh,PV pol inh intensity
Cn1c(=O)c2c(c3ccccc31)OC(=O)CC2c1ccccc1 (stereo not given),108,95
Cc1ccccc1Cn1nnc2c(=O)[nH]c(C3CCCN(C(=O)c4ccc(F)cc4)C3)nc21 (stereo not given),108,102
CCCNC(=O)N1CCCN(S(=O)(=O)c2ccc3c(ccn3CC)c2)CC1,109,113
CNc1ccc(-c2nc(-c3ccccc3C)no2)cc1[N+](=O)[O-],108,112
CCc1cc2c(cc3c(=O)n(CC(=O)NCc4cc(Br)ccc4OC)ncn32)s1,111,109
Cc1cc(NC(=O)c2cc(-c3cccc(Cl)c3)on2)n(-c2ccccc2)n1,100,102
O=C(CSc1ncccc1C(=O)Oc1ccccc1Cl)Nc1ccc(C(F)(F)F)cc1Cl,115,116
O=C(Nc1ccc2nc(SCCOc3ccccc3)sc2c1)c1cccs1,109,114
CC1=C(C(N)=O)C(c2ccc(C)cc2)n2nc(SCc3ccccc3)nc2N1 (stereo not given),105,104
Cc1cccc(N2CCN(C(=O)CCNS(=O)(=O)c3ccc4c(c3)CCN4C(=O)C3CC3)CC2C)c1 (stereo not given),107,114
Cc1ccc(-n2c(SCC(N)=O)nc3c(oc4ccccc43)c2=O)cc1C,109,104
CCCN(C(=O)c1sc2nc3n(c(=O)c2c1C)CCCC3)c1ccccc1C,109,116
CC1CCN(S(=O)(=O)c2ccc3ncn(CC(=O)Nc4ccccc4C(F)(F)F)c(=O)c3c2)CC1,103,104
Cc1ccc(CN2CCCn3nc(C(=O)NCC(C)c4ccccc4)cc3C2=O)cc1 (stereo not given),105,109
COCCCNC(=O)Cn1nc(N2CCN(c3ccccc3)CC2)ccc1=O,104,99
COc1ccc(C2c3c(-c4ccccc4O)n[nH]c3C(=O)N2Cc2ccco2)cc1 (stereo not given),107,105
COc1ccc(NC(=O)CSc2nc(-c3ccco3)cc(C(F)(F)F)n2)cc1OC,104,106
CCc1ccc(N2CC(c3nc4ccccc4n3Cc3ccccc3C)CC2=O)cc1 (stereo not given),107,114
Cc1ccc(NC(=O)c2cc3c(Cl)nc4ccc(C)cc4c3s2)c(Cl)c1,63*,66*
COc1ccc(NC(=O)CN2CCN(CC(=O)Nc3ccccc3F)CC2)cc1OC,103,103
Cc1ccc(C)c(N2CCN(C(=O)CCS(=O)(=O)c3ccc4c(c3)oc(=O)n4C)CC2)c1,102,96
Cc1ccc(C(=O)NCC(c2cccnc2)N2CCc3ccccc3C2)cc1C (stereo not given),115,113
Cc1nc2nc(SCC(=O)Nc3ccccc3Cl)nn2c(C)c1Cc1ccccc1,101,106
CCc1nnc(NC(=O)CSc2nccn2Cc2ccc(F)cc2)s1,106,97
COC(=O)c1ccc(C(=O)OC)c(NC(=O)c2cc3nc(-c4ccc(C)cc4)cc(C(F)(F)F)n3n2)c1,104,107
COc1ccc(-c2noc(-c3ccc(NC4CCCC4)c([N+](=O)[O-])c3)n2)cc1,114,105
CCc1ccc2oc(C(=O)Nc3c(C)n(C)n(-c4ccccc4)c3=O)cc(=O)c2c1,102,92
COc1cc(OC)cc(C(=O)Nc2ccccc2-c2nc3ccccc3s2)c1,102,107
COc1cc(OC)cc(C(=O)Nc2ccc3nc(Nc4cccc(C(F)(F)F)c4)cc(C)c3c2)c1,109,112
Cn1c2ccc(F)cc2c2nnc(SCCN3CCCCC3)nc21,101,100
CCOc1ccc(CCNC(=O)CSc2n[nH]c(-c3ccccc3)n2)cc1OCC,108,108
CCOC(=O)c1ccc(CN(Cc2ccccc2C)S(=O)(=O)c2ccc(F)c(C(=O)Nc3cccc(OC)c3)c2)cc1,109,114
COc1ccc(CCNC(=O)CCn2c(=O)c3ccccc3n(Cc3cc(C)ccc3C)c2=O)cc1OC,104,105
COc1ccc(OC)c(CNC(=O)C2CCN(S(=O)(=O)c3cn(C)cn3)CC2)c1,106,111
COc1ccc(CC(=O)NCCc2csc(-c3cccc(C)c3)n2)cc1,107,105
Cc1ccc(NC(=O)Cn2c(=O)n(Cc3ccco3)c(=O)c3oc4ccccc4c32)cc1C,110,106
COc1cn(CC(=O)Nc2c(C)cc(C)cc2C)c(CN2CCCCC2)cc1=O,108,112
CCS(=O)(=O)c1nc(S(=O)(=O)c2ccc(Cl)cc2)c(NCc2ccccc2Cl)s1,105,107
CCOC(=O)c1cc(NC(=O)c2ccc(F)cc2)c(=O)n2c1oc1ccc(Cl)cc12,106,105
Cc1ccccc1NC(=O)CSc1cn(CC(=O)N2CCCCCC2)c2ccccc12,118,117
Cc1ccc(-n2c(SCC(=O)Nc3c(C)cccc3C)nc(O)c(C)c2=O)cc1,111,110
CC(=O)c1ccc(NC(=O)CC2Oc3ccc(C)cc3NC2=O)cc1 (stereo not given),105,105
CCc1cc2c(cc3c(=O)n(CC(=O)NC(C)c4ccccc4)ncn32)s1 (stereo not given),105,106
Cc1ccc(Nc2c(-c3ccc(N4CCOCC4)cc3)nc3c(C)cccn23)cc1,101,104
CCN(CC)CCCNC(=O)C1CCN(S(=O)(=O)CC)CC1,104,99
CCOc1ccc(C(=O)Nc2ccc3oc(-c4cccnc4)nc3c2)cc1,107,110
CC(=O)N1CCCc2cc(S(=O)(=O)N3CCC(C(=O)NCc4ccccc4)CC3)ccc21,110,106
O=C(CN1C(=O)COc2ccc(S(=O)(=O)N3CCCCCC3)cc21)N1CCN(c2ccccc2)CC1,104,102
CCc1ccc(NC(=O)c2ccc3c(=O)n4nc(Nc5ccccc5C)sc4nc3c2)cc1,101,100
Cc1cccc(C(=O)Nc2ccc(C(=O)OCc3cc(=O)n4c5c(sc4n3)CCCC5)cc2)c1,101,108
CCc1cccc(NC(=O)c2c(N3CCCC3=O)c3cc(C)ccc3n2C)c1,99,103
Cc1cc(C)n2c(Nc3ccc(C(C)C)cc3)c(-c3ccsc3)nc2n1,106,102
CC1=C(C(=O)Nc2cccc(C)c2C)C2(CCCCC2)OC1=O,104,111
Cc1ccc(CNC(=O)C2CCN(S(=O)(=O)c3ccc4c(c3)oc(=O)n4C)CC2)cc1,108,113
COc1cc2c(cc1OC)C(COc1ccc(F)cc1)N(C(=O)Cc1ccccc1)CC2 (stereo not given),107,108
O=C(NCc1ccc2c(c1)CCN2C(=O)c1ccccc1)c1ccccc1,110,109
Cc1ccc2oc(=O)c3cnn(CC(=O)Nc4cccc(C(F)(F)F)c4)c3c2c1,106,109
COc1ccc(N2CCN(CCCNC(=O)c3cc(Nc4ccccc4OC)nc4ccccc34)CC2)cc1,104,111
Cc1nc(-c2cccc(F)c2)sc1CCNC(=O)C(=O)Nc1ccc2c(c1)OCCO2,101,110
COC(=O)Cc1c(C)nc2nc(-c3ccc(C)cc3)[nH]n2c1=O,115,110

# (next part)
SMILES,PV pol inh,PV pol inh intensity
CCOC(=O)N1CCN(C(=O)c2cnn(-c3cccc(F)c3)c2-n2cccc2)CC1,107,115
CCOc1ccc(Nc2nc3c(S(=O)(=O)c4ccc(C(C)C)cc4)nnn3c3ccsc23)cc1,101,110
CCCS(=O)(=O)c1ncc(Cl)c(C(=O)N2CCN(c3ccc(OC)cc3)CC2)n1,103,105
COc1ccc(/C=C/C(=O)Nc2nc(-c3cccs3)ns2)cc1OC,107,104
CCc1ccccc1Nc1nn2c(=O)c3ccc(C(=O)NCc4ccccc4OC)cc3nc2s1,104,110
CCOC(=O)c1ccccc1NC(=O)Cn1c2ncccc2c(=O)n1-c1ccccc1,105,99
COc1cc(NC(=O)COCc2cc(-c3ccc4c(c3)OCO4)on2)cc(OC)c1,124,121
COc1cccc(N2CC(NC(=O)C3CCCCC3)CC2=O)c1 (stereo not given),107,93
COc1ccccc1N1CCN(C(=O)Cn2c(=O)n3nc(-c4ccc(C)cc4)nc3c3ccccc32)CC1,112,107
O=C(Cn1c(-c2cccs2)cc2ccccc21)N1CCN(c2ccc(Cl)cc2)CC1,111,115
O=C(NC1CC(=O)N(c2cccc(F)c2)C1)C1CC1 (stereo not given),102,103
O=C(NCC(c1cccnc1)N1CCc2ccccc21)c1cccc(Br)c1 (stereo not given),106,109
CC(=O)c1ccc(NC(=O)COCc2cc(-c3ccc(F)cc3)on2)cc1,110,115
Cc1ccc(S(=O)(=O)NCc2nc3nc(C)cc(C)n3n2)cc1,107,105
COc1ccc(CNC(=O)c2cc3c(=O)[nH]c4ccc(C)cc4c3s2)c(OC)c1,108,106
COc1ccc(NC(=O)Cn2c(C)c3cnn(-c4ccccc4)c(=O)c3c2C)c(OC)c1,109,112
COc1ccc(CCNC(=O)CN(c2cc(C(F)(F)F)ccc2Cl)S(C)(=O)=O)cc1,108,107
COC(=O)c1ccc(NC(=O)CCc2c(C)nn(-c3ccc(N4CCOCC4)nn3)c2C)cc1,106,107
CC(=O)NCC(c1ccc2c(c1)OCO2)N1CCN(c2ccccc2)CC1 (stereo not given),110,112
CCOC(=O)c1c(C)n(-c2ccccc2)c2ccc(OC(=O)COc3ccc(Cl)cc3)cc12,106,111
CCOC(=O)CN(Cc1ccccc1)C(C(=O)NC1CCCCC1)c1ccccc1 (stereo not given),101,102
Cc1ccc(C)c(NC(=O)CSc2ncc3c(n2)-c2cc(Cl)ccc2N(Cc2ccccc2F)S3(=O)=O)c1,113,116
Nc1nnc(SCC(=O)Nc2ccccc2C(F)(F)F)s1,111,106
COc1cccc(NC(=O)c2oc3ccc(S(=O)(=O)N4CCOCC4)cc3c2C)c1,113,113

# One compound at a time, from the list above. Values in the order: PV pol inh | PV pol inh intensity
# `Cc1ccc(C)c(NC(=O)CSc2ncc3c(n2)-c2cc(Cl)ccc2N(Cc2ccccc2F)S3(=O)=O)c1` is listed as 113 | 116
# `CCOC(=O)CN(Cc1ccccc1)C(C(=O)NC1CCCCC1)c1ccccc1` (stereo not given) is listed as 101 | 102
# `COc1ccc(CNC(=O)c2cc3c(=O)[nH]c4ccc(C)cc4c3s2)c(OC)c1` is listed as 108 | 106
# `CCOC(=O)c1c(C)n(-c2ccccc2)c2ccc(OC(=O)COc3ccc(Cl)cc3)cc12` is listed as 106 | 111

# (further entries)
SMILES,PV pol inh,PV pol inh intensity
O=C(NCc1ccc(Cl)cc1)c1ccc2c(c1)N(Cc1ccccc1F)C(=O)c1ccccc1S2=O (stereo not given),111,107
CN(C(=O)CSc1nc2ccccc2n1CC(=O)N(C)C1CCCCC1)c1ccccc1,109,109
Cc1ccc(C)c(NC(=O)CSc2nc(=O)n(CCN3CCOCC3)c3c2CCC3)c1,104,109
Cc1oc2ncn(C)c(=O)c2c1C(=O)Nc1ccccn1,111,114
CC(=O)N1CCCc2cc(S(=O)(=O)N3CCC(C(=O)NC4CCC(C)CC4)CC3)ccc21 (stereo not given),103,103
CC(=O)c1ccc(Oc2ncnc3c2oc2ccccc23)cc1,110,98
Cc1ccc(CNC(=O)C(C(C)C)N2Cc3ccccc3C2=O)cc1 (stereo not given),110,110
